# eIF4H FP inh – inhibitors of RNA binding by human eIF4H; Q15056; eIF4H fluorescence polarization binding assay; inhibition, % at 35 µM; 0.94% of 290,000 active;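 active means 50% or more with normal probe brightness, or confirmed in later tests; inconclusive means above 50% with abnormal brightness, or retests that disagree; inactive means below 50% or failed in later tests; about a fifth of its hits are not listed in these tables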;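 further: calls also rest on retests at 20 µM and on dose response follow-up; 0% = protein and probe with vehicle and 100% = probe without protein; strong numbers were not always called active; many hits fall short of the cut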
# MT1-MMP act inh – MT1-MMP (human) activation inhibition; GFP/RFP ratio change, % at 20 µM; HT1080 RFP-PRO-GFP cells, GFP/RFP ratio fluorescence, overnight; percent of plate control window, DMSO zero; AID 651647; P50281; 0.061% of 360,000 active;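 active means GFP/RFP ratio change of at least 30% with cell ATP level not reduced by more than half and red fluorescence within 50% of control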; further: strong numbers were not always called active
#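 Assay system: HT1080 RFP-PRO-GFP cells | Dosing: 20 µM single dose, 1% DMSO | Incubation: Cells overnight before dosing, compound overnight, 37 °C, 5% CO2 | Evaluation: GFP/RFP fluorescence ratio | Control set: DMSO-only wells and HT1080 RFP-L50D-GFP cell wells as references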
# Rce1 inh – blocks yeast Ras-converting enzyme. Q03530. yeast membranes, quenched prenylated peptide cleavage fluorescence. calls only. 0.27% of 290,000 active. AID 2563;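 active means fall in fluorescence gain of 50% or more versus controls, with final raw signal at or below 3038400; inconclusive means same 50% fall but final raw signal above 3038400; inactive means fall in fluorescence gain under 50%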;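 further: plate controls were neutral control wells for no effect and wells lacking membranes for full effect; tested at 10 µM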
# Target sequence (Q03530 whole entry, looked up): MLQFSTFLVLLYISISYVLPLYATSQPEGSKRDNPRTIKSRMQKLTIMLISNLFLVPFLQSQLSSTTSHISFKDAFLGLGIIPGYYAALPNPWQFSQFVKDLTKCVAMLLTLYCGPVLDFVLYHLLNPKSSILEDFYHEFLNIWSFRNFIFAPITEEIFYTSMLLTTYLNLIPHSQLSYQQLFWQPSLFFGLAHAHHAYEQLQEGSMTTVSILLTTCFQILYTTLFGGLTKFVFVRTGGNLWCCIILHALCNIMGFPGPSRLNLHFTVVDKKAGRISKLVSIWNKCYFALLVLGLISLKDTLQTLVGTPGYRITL
# UUG fidelity – modulators of start codon recognition fidelity in yeast | activity score, % at 18.7 µM | AID 602363 | 0.13% of 350,000 active | S. cerevisiae UUG-firefly luciferase reporter, luminescence/redox ratio;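 active means replicate mean at a twofold rise or more, about +100% in these data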;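 further: firefly luciferase made from a UUG start codon reports start codon fidelity; reporter light over untreated wells divided by growth signal over untreated wells; some hits fall short of that in this replicate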
# Env fusion inh – HIV envelope-mediated fusion inhibition; 1.1% of 360,000 active; inhibition, % at 12.3 µM; HeLa-JRFL Env/CEM21 cell fusion, luciferase; AID 651610;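 active means mean replicate inhibition score of at least 50 and every replicate individually at or above 50; inconclusive means only one of the two criteria met; inactive means mean below 50 and not all replicates reaching 50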;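 further: 0% = plate neutral controls and 100% = maraviroc near 300 nM; one replicate is shown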
# CSC inhib – blocks cancer stem cells; cancer stem cell-like cells viability, luminescence; AID 2717; inhibition, % at 7.5 µM; 1.1% of 300,000 active;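 active means mean at 75% or more and at least half the replicates too; inconclusive means mean and replicates disagree; tested in HMLE shEcad cells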;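 further: 0% = median of negative and 100% = median of positive control wells; the first replicate is given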
# PABP FP inh – blocks human PABP binding to poly(A) RNA. P11940. fluorescence polarization. inhibition, % at 35 µM. 1% of 290,000 active. AID 2014;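 active means 50% or more with normal probe brightness, or confirmed in later tests; inconclusive means above 50% with abnormal brightness, or retests that disagree; inactive means below 50% or failed in later tests; about a fifth of its hits are not listed in these tables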;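 further: calls also rest on retests at 20 µM and on dose response follow-up; controls were probe without protein and protein plus probe with vehicle; some compounds called inactive have numbers as strong as hits; many hits fall short of the cut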
# MT1-MMP act inh RFP – second read-out of MT1-MMP act inh, no call of its own (marks repeat the call); RFP signal change, %; measured here: RFP expression control read;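 0 = vehicle wells; hits needed this value within 50% of zero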
# An asterisk follows results filed as active; i = inactive; ? = inconclusive; nt = no result given; + = active, no number.
no.	mol	UUG fidelity	Rce1 inh	MT1-MMP act inh RFP	CSC inhib	PABP FP inh	MT1-MMP act inh	eIF4H FP inh	Env fusion inh
1	CCC(=O)OCCNc1cc(Sc2nc3ccccc3s2)c2nonc2c1[N+](=O)[O-]	3	i	nt	106*	24	nt	39	-156
2	Cc1cc2ccccc2nc1SCC(=O)NC1CCCC1	-7	i	-1	23	-2	-4	-5	2
3	CC(=O)c1coc2c1cc(O)c1ccccc12	-20	i	13	28	-9	7	6	-234
4	Cc1ccc(CN2CCN(Cc3cn[nH]c3-c3ccccc3)CC2CCO)o1 (stereo not given)	1	i	7	-15	6	-3	-2	-13
5	CCOc1ccc(CN(C(=O)c2cc(=O)c3cc(C)cc(C)c3o2)C2CCS(=O)(=O)C2)cc1 (stereo not given)	-16	i	-1	0	nt	-3	nt	14
6	O=C(CNC(=O)c1ccc(Br)cc1)NC1CC1	-3	nt	4	-9	nt	5	nt	10
7	COC(=O)Nc1ccc(S(=O)(=O)N2CCCCC2C(=O)NCc2ccco2)cc1 (stereo not given)	nt	i	1	-15	5	0	-1	-18
8	Cc1sc2ncnc(NC(C)C(=O)O)c2c1C (stereo not given)	nt	i	1	-16	7	-6	-4	-5
9	O=C(CSc1nnc(N2CCCC2)n1-c1ccccc1Cl)N1CCN(c2ccccn2)CC1	-9	nt	-2	nt	nt	2	nt	-5
10	COc1ccccc1N1CCN(c2nc(C)cc(=O)[nH]2)CC1	-12	i	3	-17	nt	0	nt	-3
11	O=C(c1ccccc1F)N1CCC(O)(c2cccnc2)CC1	-12	i	3	-21	7	4	-3	nt
12	COc1cc2sc3cc(NCc4ccc(C)o4)ccc3c(=O)c2cc1OC	-22	nt	4	46	nt	10	nt	-96
13	COc1ccccc1-n1c(=O)c(C#N)c(-c2ccc([N+](=O)[O-])cc2)c2cc(C(=O)c3cc(F)ccc3O)cnc21	nt	i	5	-2	3	1	-12	6
14	CC(C)(CCC(=S)N1CCOCC1)C1CCCCC1	-12	nt	-5	1	19	-2	-2	-17
15	CCOC(=O)CSCC(=O)Nc1cc(C)ccc1C	nt	i	4	nt	-10	0	-8	nt
16	O=C(N/N=C/c1c[nH]c2ccccc12)c1cccc(Cl)c1	-17	i	0	7	2	0	3	-20
17	O=S(=O)(c1ccc(F)c(F)c1F)N1CCN(C(=S)NCc2ccccc2)CC1	nt	i	3	-11	0	6	-5	-12
18	CCCCc1n[nH]c(=S)n1Cc1ccc(Cl)cc1	nt	i	0	-10	11	3	1	1
19	COc1cccc(C(NC(C)=O)c2nc(-c3ccccc3OC)cs2)c1 (stereo not given)	-7	nt	2	nt	nt	0	nt	i
20	Cc1ccc(C(=O)Nc2ccccc2C(N)=O)o1	-12	i	0	-5	-4	4	-2	-38
21	COc1ccc(C(C#N)c2ccc(=O)[nH]n2)cc1 (stereo not given)	nt	i	5	-12	-8	3	-2	14
22	COc1ccc(CNC(=O)C2=CC(c3ccc(C)cc3)=NS(=O)(=O)N2C)cc1	-7	i	2	nt	-1	-1	-12	8
23	FC(F)(F)c1cccc(NCc2cn3cccnc3n2)c1	nt	i	6	-8	-8	4	-6	nt
24	COc1ccc(NC(=O)CSc2nnc(-c3ccccc3)n2Cc2ccco2)cc1OC	2	i	-6	-7	-11	1	-2	31
25	COC(=O)c1ccc(/C=C2\Oc3ccccc3NC2=O)cc1	-19	i	1	10	-7	2	-14	-80
26	CCCCn1c(N)c(N(Cc2ccccc2OC)C(=O)CC2OC(=O)c3ccccc32)c(=O)[nH]c1=O (stereo not given)	2	i	3	3	nt	1	nt	-23
27	CCOC(=O)c1ccc(NC(=O)COc2ccc(CNC3CCCCC3)cc2OC)cc1	nt	nt	2	5	-10	2	-13	-26
28	C[C@@H]1C(c2ccccc2)=NN(c2ccc(Br)cc2)[C@H]1C(=O)N1CCOC1=O	31	nt	0	nt	nt	-1	nt	-21
29	COc1cc2c(cc1OC)C(NC(=O)C(F)(F)F)CNC2=O (stereo not given)	nt	i	-8	-10	8	-10	-11	30
30	COc1ccccc1OCCCCCCN1CCN(C)CC1	nt	i	-2	47	nt	2	nt	3
31	Cc1cc(NC(=O)CCCn2nc([N+](=O)[O-])cc2C)no1	-26	i	-1	-13	-8	-6	-7	-6
32	COc1ccc(C)cc1NC(=O)CCC(=O)Nc1ccc2nc(N3CCN(C)CC3)cc(C)c2c1	nt	+	nt	nt	-2	nt	-10	nt
33	CCC(CC)NC(=O)Nc1ccc(F)cc1F	nt	i	0	-6	1	-1	6	-8
34	Cc1c(C(=O)N(C)C2CCCCC2)sc2ncnc(N3CCN(c4ccccc4F)CC3)c12	16	i	-14	38	-3	-11	18	nt
35	Cc1cc(Nc2ccc(N3CCOCC3)cc2)c2cccc(C)c2n1	nt	i	1	2	-5	1	0	-15
36	Cc1ccc(NC(=O)N2CCC(NC(=O)c3cccc(F)c3)CC2)cc1	-11	i	-1	3	1	2	-12	-10
37	CC(C)(C)OC(=O)NCCc1nnc(SCc2c(Cl)cccc2Cl)o1	15	i	-1	-10	-2	-5	10	-19
38	CCc1nnc(NC(=O)CSc2nnc(CCc3nc4ccccc4[nH]3)n2C)s1	-18	i	6	nt	-6	3	-5	-139
39	CN(C(=O)c1ccc(NC(=O)Cc2cccc(NC(=O)C3CCCN(S(=O)(=O)c4cccc([N+](=O)[O-])c4)C3)c2)cc1)C1CC1 (stereo not given)	-18	nt	-5	nt	nt	3	nt	-13
40	Nc1nc(N)c2[nH]c(=S)[nH]c2n1	-14	nt	3	nt	nt	0	nt	1
41	CCOC(=O)C1CCN(C(=O)COC(=O)C2CCN(S(=O)(=O)c3ccc4c(c3)OCCO4)CC2)CC1	-13	i	3	nt	nt	2	nt	29
42	Cc1ccc2[nH]c3c(=O)n(Cc4ccco4)cnc3c2c1	-12	i	2	-15	3	1	0	-1
43	CN(C)S(=O)(=O)c1ccc2oc(SCC(N)=O)nc2c1	nt	i	1	7	0	-6	-3	nt
44	O=C(NCCc1cscn1)C1CCC(=O)N(Cc2ccc(Cl)cc2)C1 (stereo not given)	-7	i	2	-7	-5	-2	-3	7
45	O=C(NN=C1CCCC1)c1ccc([N+](=O)[O-])cc1	nt	i	4	10	-7	1	4	-1
46	Nc1cc([N+](=O)[O-])ccc1O	nt	i	2	-2	1	16	-4	16
47	CC(NC(=O)CN1CCc2ccccc21)c1ccccc1 (stereo not given)	9	i	6	-12	-1	2	-13	-33
48	COc1ccc([C@H]2/C=C\CN(C(=O)C3CCCC3)[C@@H](C)C(=O)N2Cc2ccc(F)cc2)cc1	-14	i	-21	-5	nt	-6	nt	32
49	O=S(=O)(Nc1ccc(Cl)cc1)c1cccc2cccnc12	-3	i	-1	-6	6	-4	0	16
50	O=C(Nc1cccc(F)c1)Nc1ccc(Cl)cn1	-28	i	-4	13	1	-2	4	-20
51	CCC(C)N1C(=O)c2ccccc2C1C(=O)NC1CCCCCC1 (stereo not given)	nt	i	0	-1	5	-2	0	26
52	Cc1cnc(C(=O)Nc2ccccc2-c2nnn(CC(=O)NC3CCCC3)n2)cn1	-22	i	2	-7	1	-3	-1	nt
53	C=CCOc1ccc(C(=O)Nc2ccc3c(c2)n(C)c(=O)n3C)cc1	-4	i	4	0	-1	7	-14	2
54	O=C(CSc1nn(-c2ccc(F)cc2)c(=S)s1)NCC1CCCO1 (stereo not given)	nt	i	1	-9	16	-7	11	19
55	COc1c(Br)cc2c(C)c(C(=O)N3CCOCC3)oc2c1Br	nt	nt	nt	-1	-14	nt	0	nt
56	COc1ccc(CCCN2CCC(CN3C(=S)NC[C@@H]3Cc3ccccc3)CC2)cc1OC	-32	nt	3	nt	nt	5	nt	-1
57	O=C(CN1CCCN(Cc2ccc(F)cc2Cl)C1=O)NC1CCCCCCC1	-6	i	-8	-11	-9	6	-9	72*
58	CCCOc1cccc(C2/C(=C(/O)c3ccccc3)C(=O)C(=O)N2CCN(C)C)c1 (stereo not given)	-4	i	2	nt	2	-8	1	nt
59	CCN(CC)C(=O)c1[nH]cnc1C(=O)Nc1ccc(C)cc1	-17	nt	-2	-21	nt	4	nt	-7
60	c1ccc(CNc2cncnc2)cc1	-26	i	1	-15	-1	1	-5	1

# Other compounds.
no.	mol	UUG fidelity	Rce1 inh	MT1-MMP act inh RFP	CSC inhib	PABP FP inh	MT1-MMP act inh	eIF4H FP inh	Env fusion inh
61	O=C(COc1ccc(Cl)cc1)NCc1nnc(SCC(=O)Nc2ccccc2F)o1	nt	i	4	0	-11	2	-5	11
62	O=C(Nc1ccc(Cl)cc1)[C@@H]1[C@@H]2C(=O)N(c3ccc4ccccc4c3)C(=O)[C@@H]2[C@H]2C=CC=NN21	nt	i	8	-1	7	-1	-1	-8
63	C=CCSc1nnc(-c2c[nH]c3ccccc23)n1CCOC	-4	i	7	-12	3	7	4	nt
64	CC1CC(=O)Nc2ccccc2N1S(=O)(=O)c1cccc(Cl)c1 (stereo not given)	1	i	8	11	8	2	11	-1
65	CC1C(c2ccccc2)N(C)C(c2ccccc2)C(C)C1(O)C#Cc1ccccc1 (stereo not given)	0	nt	-18	nt	47	-11	-12	-2
66	COc1ccccc1COC(=O)Nc1c(C)nn(C)c1Cl	-9	i	0	7	-6	4	-4	-5
67	COCCNC(=S)Nc1ccc2nsnc2c1	-1	i	4	-16	1	-3	2	1
68	COc1ccc(NC(=O)c2cncc(Br)c2)cc1S(=O)(=O)N1CCCCC1	-9	i	-9	-1	1	-1	-8	40
69	CCC(=O)Nc1ccc2c(c1)ncn2CCc1ccccc1	-9	i	0	-18	-1	3	1	-1
70	CCN(CC)c1ccc(N=CN2CCOCC2)cc1	-17	i	2	-4	-7	1	3	-2
71	Cc1cc(C)cc(-n2ncc3c2CCCC3NC(=O)c2cc(C)n(C)n2)c1 (stereo not given)	6	i	-8	-3	11	4	-1	6
72	CN(C)c1ccc(CNCCC(Cc2ccccc2)c2ccco2)cc1 (stereo not given)	-13	i	-15	13	-4	-3	6	31
73	O=C(O)c1cc(-c2ccncc2)nc2ccc(S(=O)(=O)N3CCOCC3)cc12	-10	i	7	-11	8	-1	2	9
74	Cc1ccc(NC(=O)c2sccc2-n2cccc2)c(C)c1	5	i	-2	1	6	-3	-11	-44
75	CCC(=O)N1N=C(c2cccc(NS(C)(=O)=O)c2)CC1c1cccs1 (stereo not given)	nt	i	1	-6	-10	0	-1	-17
76	N#CC(C#N)=CNc1cccnc1	nt	nt	6	-3	1	-2	-10	3
77	COc1ccc(OC)c(CN2CCN(CC(=O)Nc3ccccc3C(=O)NC3CC3)CC2)c1	-7	nt	3	nt	nt	-2	nt	-10
78	Brc1ccc(-c2nnc(Cc3ccccc3)o2)cc1	-10	i	-3	-8	-5	-3	-11	-29
79	Cn1c(SCc2cccc(F)c2)nnc1-c1ccccn1	-13	i	4	-16	-7	2	-5	-52
80	C=CCc1cccc(CNc2nc3ccccc3n2CCN2CCOCC2)c1O	-11	i	-12	22	0	-8	-5	?
81	COc1cccc(Cn2nc(C(=O)O)c3ccccc3c2=O)c1	13	i	3	-3	-4	2	8	-10
82	C=CCSc1nnc(NC(=O)C2CC(=O)N(c3ccc4c(c3)OCCO4)C2)s1 (stereo not given)	-3	nt	-3	-24	nt	0	nt	i
83	Cc1ccc([N+](=O)[O-])cc1N/C=C1\CCc2ccccc2C1=O	-12	i	5	52	8	-5	0	-101
84	Cc1c(C(=O)N2CCCC2)sc(NC(=O)c2ccccc2)c1C#N	-4	i	-2	10	2	-5	0	nt
